Assay outcomes deposited in PubChem BioAssay by several laboratories.
RecA intein inh: Mtb RecA intein splicing inhibition | P9WHJ3 | cell-free RecA intein splicing, fluorescence | inhibition, %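 (about 9 µM by stock and volumes)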 | 0.75% of 290,000 active | AID 2221; in the data active = inhibition above about 30%; inconclusive = no clear call, values can overlap the other calls;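 also: 0% = vehicle wells and 100% = reference inhibitor control wells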
Target sequence (P9WHJ3 whole entry, looked up): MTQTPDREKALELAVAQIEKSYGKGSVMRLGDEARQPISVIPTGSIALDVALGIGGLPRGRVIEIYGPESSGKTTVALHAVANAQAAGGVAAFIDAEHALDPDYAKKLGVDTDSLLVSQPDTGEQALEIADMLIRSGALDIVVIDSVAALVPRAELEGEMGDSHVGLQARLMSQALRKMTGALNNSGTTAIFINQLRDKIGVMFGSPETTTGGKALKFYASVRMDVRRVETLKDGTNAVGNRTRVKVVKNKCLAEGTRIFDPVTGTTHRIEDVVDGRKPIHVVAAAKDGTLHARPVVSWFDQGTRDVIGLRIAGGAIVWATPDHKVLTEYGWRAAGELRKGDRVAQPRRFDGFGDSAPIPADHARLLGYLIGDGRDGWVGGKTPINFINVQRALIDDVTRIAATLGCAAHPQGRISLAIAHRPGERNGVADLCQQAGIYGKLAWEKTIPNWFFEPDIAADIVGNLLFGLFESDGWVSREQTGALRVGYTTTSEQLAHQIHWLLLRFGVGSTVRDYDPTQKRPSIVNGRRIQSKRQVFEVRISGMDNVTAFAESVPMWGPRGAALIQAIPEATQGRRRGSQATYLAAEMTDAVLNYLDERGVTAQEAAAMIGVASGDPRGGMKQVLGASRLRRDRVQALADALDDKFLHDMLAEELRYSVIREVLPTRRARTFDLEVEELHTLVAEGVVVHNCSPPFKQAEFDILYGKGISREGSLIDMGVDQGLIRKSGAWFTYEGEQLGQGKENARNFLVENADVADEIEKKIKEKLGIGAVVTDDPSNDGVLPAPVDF
Mtb H37Rv: M. tuberculosis H37Rv growth inhibitors, H37Rv strain (AID 1626). M. tuberculosis H37Rv growth inhibition; higher % means a stronger effect. inhibition, % at 10 µM, or IC50 in µM where a hit was titrated. 0.95% of 220,000 active;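 active = confirmed in a dose series; inconclusive = inhibition above 80% but not taken into the dose series; inactive = below 80% or under 30% at every dose of the series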;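 also: bacteria incubated seven days before Alamar blue readout; 0% = bacteria only wells and 100% = bacteria with antibiotic wells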
YopH inh: YopH (Yersinia) phosphatase inhibition; fluorescence Ex485/Em525; inhibition, %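 (about 10 µM by stock and volumes)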; 0.16% of 140,000 active;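 active = inhibition of 50% or more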;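 also: controls were vehicle for no effect and minimum signal wells for full effect; inactives centre near -20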
Mtb betalactam: beta-lactam sensitization of Mtb H37Rv; AID 434955; M. tuberculosis H37Rv growth with meropenem, percent inhibition; hits of this screen are not shown here; inhibition, % at 25 µM; 0.27% of 330,000 active;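 active = about 74% or more and at least 40 points above the plate without the antibiotic, then above 30% in a dose series; inconclusive = first-round hits that could not be retested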;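 also: growth measured after seven days incubation then overnight dye step; 0% = bacteria only wells and 100% = bacteria with antibiotic; twin plates without the antibiotic show which effects depend on it; some results filed as inactive read as strong as hits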
Arbovirus inh: blocks arbovirus infection | inhibition, % at 10 µM | arbovirus infection cell-based antiviral screen | AID 1251 | 0.37% of 200,000 active;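 active = inhibition from about 30%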;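 also: bluetongue infection of BSR cells; cell survival read as ATP light after 72 h; 0% = infected wells without compound and 100% = uninfected wells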
Arbovirus inh repeat: also measured in Arbovirus inh; calls as there; inhibition, %; measured here: 10K subset replicate screen; many hits read low in the repeat;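 first of two repeat runs on a subset; 0% = infected and 100% = uninfected wells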
Numbers without * were called inactive; ? = inconclusive; . = no result given. Not all compounds are listed; the hit share may differ from the screen's.

SMILES | RecA intein inh | Mtb H37Rv | YopH inh | Mtb betalactam | Arbovirus inh | others
CCC(C)(C)n1nnnc1CN1CCN(c2ccc(OC)cc2)CC1 | -3.1 | 4% | . | -3 | 7
CC(C)c1nc(NCCN2CCOCC2)c(C#N)c2c1COC(C)(C)C2 | 1.5 | 1% | -39 | -8 | 6
Cc1cccnc1NC(=S)NC(=O)/C=C/c1ccco1 | -5.8 | -3% | -19 | -12 | 6
CC(C)(O)c1[nH]c2cc(C(F)(F)F)ccc2c1C(C)(C)O | -2.0 | . | . | -11 | .
CC(Sc1cccc2cccc(C(=O)O)c12)C(=O)O (centres undefined) | -2.1 | 7% | 22 | -7 | 1
Cc1cc(C(=O)CCC(=O)N2CCN(c3ccccc3)CC2)c(C)s1 | 3.4 | . | . | -1 | .
Cc1ccc(S(=O)(=O)N2CCCCC2C(=O)N2CCN(C)CC2)cc1 (centres undefined) | 0.0 | -3% | -15 | 2 | -4
N#CC(C#N)=Cc1ccc(N2CCOCC2)cc1 | 3.1 | -3% | . | 3 | .
CCN(CC)S(=O)(=O)c1ccc2c(c1)c(=O)c(C(=O)N1CCN(c3ccccn3)CC1)cn2C | 1.3 | . | . | 0 | .
O=C(O)CSc1nc2ccccc2n1C1CCCCC1 | -0.6 | -3% | . | -9 | -4
CCOC(=O)c1ccc(N2CCCCC2)c(NS(=O)(=O)c2cccc(C(F)(F)F)c2)c1 | 11 | -6% | . | 4 | .
CCN(c1cccc(C)c1)S(=O)(=O)c1ccc2c(c1)CCN2C(C)=O | -0.7 | -4% | -4 | -5 | -1
Cc1cc(C(=O)N/N=C/c2ccc(O)c([N+](=O)[O-])c2)c(C)n1-c1ccc(F)cc1 | 8.7 | 4% | -21 | 91 | 2
COc1cc(C)c(CNC2CCCCC2)cc1C | . | -9% | -12 | -6 | 4
O=C(c1cnc2ccccn2c1=O)N1CCc2ccccc21 | . | 5% | -4 | 3 | 3
CCOC(=O)c1csc(CCNC(=O)c2oc3c(Cl)cc(C)cc3c2C)n1 | -0.7 | . | . | -4 | .
CCn1c(Sc2ccc(N)cc2Cl)nc2ccccc21 | 1.4 | 3% | -55 | 2 | -13
COc1ccc(-c2cc(-c3ccccc3)c(C#N)c(S(C)(=O)=O)n2)cc1 | . | -6% | -21 | 1 | -13
O=C(NC1CCCC1)C(c1ccsc1)N(C(=O)Cc1cccs1)c1ccccc1 (centres undefined) | 0.0 | -1% | -24 | 0 | 2
CCCCNC(=O)C(NS(=O)(=O)c1cccc2nsnc12)c1ccccc1 (centres undefined) | 1.2 | -7% | -29 | -3 | 3
COc1ccccc1OCC(=O)OCC(=O)NCCN1C(=O)CSC1=O | -1.5 | 1% | -47 | -16 | -4
COCCn1c(SCC(=O)Nc2cccc(C)c2)nnc1C(C)C | -0.4 | -1% | -42 | 45 | 8
COc1ccc(C(=O)CSc2nnc(CNc3ccc(F)cc3)o2)cc1 | -3.4 | 2% | . | 51 | -6
CCC(=O)N(Cc1ccco1)c1nc(-c2ccccc2)cs1 | -0.7 | -28% | -50 | -2 | 1
O=C(O)COc1ccccc1/C=C1\SC(=S)N(c2cccnc2)C1=O | -2.1 | 1% | . | 5 | .
OCCC1CN(Cc2cccs2)CCN1Cc1ccccc1 (centres undefined) | 2.0 | -2% | . | 7 | -4
Nc1ccccc1Oc1c(F)c(F)c(Oc2ccccc2N)c(F)c1F | 8.2 | 12% | . | 1 | 0
CSCCC(NS(=O)(=O)c1ccc2c(c1)oc(=O)n2C)C(=O)NC1CCCCC1 (centres undefined) | 9.0 | -3% | -24 | -12 | 12
COc1ccc(OC)c(C2c3[nH]c4ccccc4c3C[C@H]3C(=O)N(C4CC4)CC(=O)N23)c1 (some centres undefined) | 0.1 | . | . | -1 | .
Cn1c(=O)cc(OCCCC(=O)Nc2ccccn2)c2ccccc21 | 1.7 | -1% | -42 | 4 | -14
CCc1ccc(OCCNC(=O)OCc2ccccc2)cc1 | 2.5 | 19% | -24 | 10 | -13
CCCCNC(=O)CNC(=S)N(Cc1ccccc1)Cc1cccs1 | 5.0 | 5% | . | 3 | -9
CCCCCCCCc1nnc(N)s1 | 1.2 | -3% | . | 4 | .
N#Cc1c2n(c(=S)n(-c3ccc(F)cc3)c1=O)CCCCC2 | -3.6 | -5% | . | -5 | 3
Cc1c(Cl)cccc1NC(=O)CSc1nncn1-c1cccnc1 | -0.4 | . | . | 17 | .
COc1ccc(OCCC(=O)OCC(=O)NC2CCCCCCC2)cc1 | -0.3 | 0% | . | 0 | 2
Cc1c(C)c2ccc(OCC(=O)NCCCn3ccnc3)cc2oc1=O | 0.6 | . | . | -1 | .
Cc1ccc(NC(=O)C2CCCN2C(=O)NCc2ccccc2)cc1 (centres undefined) | 3.9 | -7% | . | -3 | -7
N#Cc1c(NC(=O)COC(=O)c2nccnc2N)sc2c1CCCC2 | -2.2 | . | . | -6 | .
Cc1ccc(S(=O)(=O)NCc2ccccc2C)cc1 | 2.4 | . | . | 4 | .
Cc1noc(C)c1COc1ccc(C(=O)N2CCN(c3ccccn3)CC2)cc1 | 2.7 | . | . | 3 | .
COc1ccc(/C=N/Nc2ncccc2[N+](=O)[O-])c(OC)c1 | -0.4 | -5% | . | 2 | -6
CCN(CC)CCCNC(=O)C1c2cc(OC)c(OC)cc2C(=O)N(C)C1c1cccs1 (centres undefined) | -0.4 | 10% | 9 | -10 | 1
Cc1cc(C)n2nc(CC(=O)NCc3ccc(F)cc3)nc2n1 | 0.2 | -9% | -19 | -1 | -4
O=C(c1ccccc1)N1CCCC(c2nc3c(nnn3Cc3ccccc3)c(=O)[nH]2)C1 (centres undefined) | -1.2 | -6% | -37 | -7 | 5

Filtered by structure, those above containing a Cl atom.
SMILES | RecA intein inh | Mtb H37Rv | YopH inh | Mtb betalactam | Arbovirus inh | others
CCOC(=O)c1csc(CCNC(=O)c2oc3c(Cl)cc(C)cc3c2C)n1 | -0.7 | . | . | -4 | .
CCn1c(Sc2ccc(N)cc2Cl)nc2ccccc21 | 1.4 | 3% | -55 | 2 | -13
Cc1c(Cl)cccc1NC(=O)CSc1nncn1-c1cccnc1 | -0.4 | . | . | 17 | .

(cont.)
SMILES | RecA intein inh | Mtb H37Rv | YopH inh | Mtb betalactam | Arbovirus inh | others
CCOC(=O)C1(C)NC(c2ccc(N(C)C)cc2)C2C(=O)N(CC)C(=O)C21 (centres undefined) | -0.6 | -20% | -43 | -2 | 1
c1nc(Nc2ccc(N3CCOCC3)cc2)c2ccsc2n1 | . | -7% | . | 2 | .
S=C(Nc1cccc(Cl)c1)N(CCCN1CCCC1)Cc1cccn1Cc1ccc(Cl)cc1 | 18 | -2% | . | 97 | -34
O=C(Nc1ccc(F)cc1)Nc1sccc1-c1nc2ccccc2s1 | -0.8 | 12% | . | 12 | .
O=C(NCCC1=CCCCC1)c1cc(-c2ccccn2)nc2ccccc12 | -2.7 | 1% | . | 5 | -5
O=S(=O)(Nc1cccc(-c2cn3cccnc3n2)c1)c1ccccc1 | -9.9 | 0% | -6 | -6 | -1
CC12CCC(=O)N1C(C(=O)OCC(=O)Nc1ccc(S(N)(=O)=O)cc1)CS2 (centres undefined) | 0.8 | 4% | -19 | 7 | 3
CCc1cc2c(nc1CC)CCN(CC/C(C)=N/O[C@@H](C)c1cc(-c3c(C)cc(C)cc3C)no1)C2 | 13 | . | -15 | 97 | -21
CCCCNC(=O)c1ccc2c(OCC)n(CCCC)nc2c1 | 0.2 | -5% | -33 | 9 | 2
CCc1ccc2nc(N3CCC(C(=O)N4CCC5(CC4)OCCO5)CC3)sc2c1 | 0.0 | -1% | . | 9 | -7
CCc1ccc(C(=O)COC(=O)[C@@H](NC(N)=O)[C@@H](C)CC)cc1 | 1.7 | 7% | . | 0 | 6
CC(=O)N1c2ccc(S(=O)(=O)N3CCC(C(=O)Nc4cc(C)cc(C)c4)CC3)cc2CC1C (centres undefined) | -1.0 | . | . | -13 | .
O=C(Cn1nc(-c2ccc(F)cc2)ccc1=O)Nc1ccc(C(=O)NC2CC2)cc1 | 6.0 | -4% | -10 | -7 | 9
COc1ccccc1CNC(=O)[C@@H]1CCCN1S(=O)(=O)c1ccc(C)cc1 | -0.5 | 0% | . | -7 | -4
Cn1cc(C(=O)C(=O)N2CCN(c3ccccc3)CC2)c2ccccc21 | 1.9 | 9% | . | -3 | -7

Random excerpt: 7 compounds from above
SMILES | RecA intein inh | Mtb H37Rv | YopH inh | Mtb betalactam | Arbovirus inh | others
S=C(Nc1cccc(Cl)c1)N(CCCN1CCCC1)Cc1cccn1Cc1ccc(Cl)cc1 | 18 | -2% | . | 97 | -34
O=S(=O)(Nc1cccc(-c2cn3cccnc3n2)c1)c1ccccc1 | -9.9 | 0% | -6 | -6 | -1
CCCCNC(=O)c1ccc2c(OCC)n(CCCC)nc2c1 | 0.2 | -5% | -33 | 9 | 2
O=C(NCCC1=CCCCC1)c1cc(-c2ccccn2)nc2ccccc12 | -2.7 | 1% | . | 5 | -5
CCOC(=O)C1(C)NC(c2ccc(N(C)C)cc2)C2C(=O)N(CC)C(=O)C21 (centres undefined) | -0.6 | -20% | -43 | -2 | 1
CCc1ccc2nc(N3CCC(C(=O)N4CCC5(CC4)OCCO5)CC3)sc2c1 | 0.0 | -1% | . | 9 | -7
CC(=O)N1c2ccc(S(=O)(=O)N3CCC(C(=O)Nc4cc(C)cc(C)c4)CC3)cc2CC1C (centres undefined) | -1.0 | . | . | -13 | .

Next compounds follow:
SMILES | RecA intein inh | Mtb H37Rv | YopH inh | Mtb betalactam | Arbovirus inh | others
Brc1ccc(-c2nc(-c3ccncc3)no2)o1 | -1.3 | -19% | -102 | -8 | 1
COCc1[nH][nH]c(=O)c1/C=N/N1CCOCC1 | 2.8 | 0% | . | -3 | 4
COc1cccc(C(=O)C2CCCN(Cc3c(C)n(C)n(-c4ccccc4)c3=O)C2)c1 (centres undefined) | -0.6 | 1% | . | -8 | .
CCN(CC(=O)Nc1c(F)cccc1F)C(=O)CCOc1ccccc1 | -12 | . | . | -5 | .
CN1CCN(Cc2nc(Cc3ccccc3)no2)CC1c1ccccc1 (centres undefined) | 0.7 | 2% | . | 9 | -6
CCCCCSc1nc2c(cnn2-c2ccccc2)c(=O)[nH]1 | . | -2% | -24 | -7 | -27
COc1ccc(C2=NN(c3ccc(C=O)cc3)C(c3ccccc3)C2)cc1 (centres undefined) | -70 | . | . | 23 | .
O=C(COC(=O)/C=C/c1cccs1)NC1CC1 | . | 0% | . | 9 | 5
COc1ccc(OC(=O)c2ccc(OC)c(S(=O)(=O)N3CCOCC3)c2)cc1 | -1.6 | . | . | 5 | .
COCCOC(=O)C1=C(C)NC(=S)NC1/C=C/c1ccccc1 (centres undefined) | 4.2 | 6% | -17 | -5 | 14
Cc1csc(NC(=O)COc2ccc3c(C)cc(=O)oc3c2)n1 | -0.9 | 0% | -8 | -2 | -6
CCC1(c2ccccc2)NC(=O)N(CC(=O)Nc2cc(C(F)(F)F)ccc2N2CCCC2)C1=O (centres undefined) | -0.9 | . | . | 6 | .
CN(CC1CCCO1)S(=O)(=O)c1ccc(C(=O)Nc2ccc(S(N)(=O)=O)cc2)cc1 (centres undefined) | 1.7 | . | . | ? | .
COc1ccc(OCc2cc(C(=O)N(C)CCC3CCOCC3)no2)c(Cl)c1 | -0.4 | . | . | 0 | .
O=C(Nc1nc2cc3c(cc2s1)OCCO3)c1cccs1 | -0.8 | 13% | . | -1 | .
O=c1cc(CSc2nnnn2-c2ccccc2)[nH]c2[nH]n(-c3ccccc3)c(=O)c12 | 1.3 | -6% | -24 | -10 | -6
COc1cccc(CC(=O)NCC2COc3ccccc3O2)c1OC (centres undefined) | -1.0 | -2% | -39 | -2 | 1
COC(=O)c1sc(=S)n(-c2ccccc2)c1N | -2.1 | 4% | -9 | -3 | -5
O=C1CCCc2cc3c(cc21)CC1(C3)Cc2cc3c(cc2C1)C(=O)CCC3 | -0.7 | 18% | . | 11 | .
O=c1[nH]c(CSc2ccccc2)nc2c1oc1ccccc12 | 1.8 | -5% | . | 1 | .
Cn1c(SCc2cccc(Br)c2)nnc1-c1ccccn1 | 1.3 | -1% | . | 3 | .
O=C(Nc1nc2c(s1)CCCC2)c1ccc(Br)o1 | -3.3 | 5% | -39 | 62 | 1 | Arbovirus inh repeat=-1
CSc1nc(NC(C)=O)nc(C)c1Br | -3.3 | 0% | -19 | -4 | 2
CC(=O)NCCc1nc2ccccc2n1CCOc1ccccc1C | 0.6 | 0% | . | -1 | .
CN1CCN(c2ccc([N+](=O)[O-])cc2S(=O)(=O)N2CCOCC2)CC1 | -3.4 | -4% | -1 | -2 | 7
CCOC(=O)C1(Cc2ccc(Cl)cc2)CCN(C(=O)c2cc(C)nc(C)n2)CC1 | -0.6 | 4% | . | -10 | 4
COc1ccc(CCNC(=O)c2cc(-c3cc(C)cc(C)c3O)n[nH]2)cc1OC | -1.0 | 4% | . | 2 | .
Nc1ncc(Br)cc1S(=O)(=O)NCCC(=O)NCCc1ccccc1 | 2.0 | . | . | 0 | .
